Vif A3G: HIV-1 Vif–A3G interaction blockers – biochemical, TR-FRET, GST-Vif 1-94, biotin-A3G peptide, dose response retest, primary screen (AID 1117319). TR-FRET GST-Vif / biotin-A3G peptide binding; higher % means a stronger effect; test concentration not given here; strong numbers were not always called active. hit rate 0.57% among 260,000. one-dose inhibition, %; IC50 in µM for titrated hits;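 active = above the screen mean plus three standard deviations and confirmed in dose response; inconclusive = results disagree or hit not tested in dose response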;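 note: Vif residues 1-94 fused to GST binding biotinylated APOBEC3G peptide 110-148; 0% = full assay without inhibitor and 100% = GST in place of GST-Vif; retest series ran down from 100 µM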
AF4-AF9 inh: MLL-AF4/AF9 protein interaction inhibition. AlphaScreen, biotin-AF4 peptide binding to FLAG-AF9. P42568. inhibition, % at 10 µM. hit rate 0.47% among 350,000;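 active = every replicate reaching a set inhibition limit, whatever the replicate mean, cut at about 25% in these data; inconclusive = mean inhibition reaches that limit but some replicates miss it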;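 note: 0% = plate neutral control median and 100% = total signal loss; the record names both 10 and 1 µM as test concentration; the first replicate is given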
Target sequence (P42568 whole entry, looked up): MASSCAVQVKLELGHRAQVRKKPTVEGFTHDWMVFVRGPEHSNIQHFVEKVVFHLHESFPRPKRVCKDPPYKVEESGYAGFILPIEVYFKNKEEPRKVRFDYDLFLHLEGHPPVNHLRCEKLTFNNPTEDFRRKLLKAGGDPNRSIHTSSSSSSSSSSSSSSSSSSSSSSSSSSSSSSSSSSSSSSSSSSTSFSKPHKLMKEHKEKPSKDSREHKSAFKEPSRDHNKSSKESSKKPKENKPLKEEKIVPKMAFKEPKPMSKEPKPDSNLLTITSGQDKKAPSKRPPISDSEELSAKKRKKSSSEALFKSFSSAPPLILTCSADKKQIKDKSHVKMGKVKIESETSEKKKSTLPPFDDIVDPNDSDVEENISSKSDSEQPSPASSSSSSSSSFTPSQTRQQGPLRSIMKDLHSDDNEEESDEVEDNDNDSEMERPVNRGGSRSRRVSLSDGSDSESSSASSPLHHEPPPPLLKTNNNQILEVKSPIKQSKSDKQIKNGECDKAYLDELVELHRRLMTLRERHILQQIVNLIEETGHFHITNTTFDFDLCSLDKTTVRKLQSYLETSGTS
Ecoli growth: E. coli growth inhibition; Escherichia coli growth, OD600, 23 h; stronger effect = lower value; OD600 absorbance (concentration not given with the values); hit rate 0.21% among 330,000; AID 1053175;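 active = OD600 absorbance below the run mean of sample wells minus 3.6 SD, in any replicate, cut at about 0.56 in these data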;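 note: stock transfer was 300 nL into about 60 µL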
RanGTP-Imp inh: disruptors of Ran-importin-beta complex formation – biochemical, FRET, CFP-Ran, YFP-importin-beta, homogeneous, primary screen; cell-free CFP-Ran/YFP-importin-beta FRET ratio; inhibition, % (test concentration not listed); hit rate 1.1% among 300,000; AID 2216;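 active = most replicates above 15%; inconclusive = exactly half above 15%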;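 note: 0% = DMSO wells and 100% = Ran loaded with GDP instead of GTP; wells of about 40 µL received 100 nL stock; the first replicate is given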
UCH37 DUB inh: inhibitors of human deubiquitinating enzyme UCH37; purified proteasome/UCH37, Ub-AMC cleavage fluorescence; inhibition, % (no concentration beside the values); hit rate 0.33% among 330,000;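 active = mean of two replicates above 20%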;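 note: 0% = compound-free wells with enzyme and 100% = wells lacking proteasome; stock transfer was 100 nL into about 20 µL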
Target sequence (Q9Y5K5 whole entry, looked up): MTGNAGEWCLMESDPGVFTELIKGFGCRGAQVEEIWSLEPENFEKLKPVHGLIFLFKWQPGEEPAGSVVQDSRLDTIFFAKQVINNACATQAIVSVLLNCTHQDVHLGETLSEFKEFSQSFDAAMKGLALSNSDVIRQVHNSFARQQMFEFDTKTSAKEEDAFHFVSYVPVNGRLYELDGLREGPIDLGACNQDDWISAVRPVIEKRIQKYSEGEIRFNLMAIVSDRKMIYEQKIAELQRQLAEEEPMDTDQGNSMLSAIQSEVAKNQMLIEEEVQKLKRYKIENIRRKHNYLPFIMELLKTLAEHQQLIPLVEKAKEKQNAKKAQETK
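assay system = human UCH37 enzyme supplied as purified proteasome complex | amount = proteasome at 0.15 nM in the dispensed enzyme solution | schedule = 30 min compound-proteasome preincubation then 25 min substrate reaction, room temperature | measured by = fluorescence, ex 355 nm, em 460 nm | benchmarks = no-proteasome wells (full inhibition) and compound-free wells (no inhibition)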
HNF4A DNA FP: change in binding of human HNF4 alpha to DNA; HNF4a-FITC DNA binding, fluorescence polarization, 1 h; P41235; activity change, % at 10 µM; AID 1224865; hit rate 0.3% among 360,000; in the data active = activity change above about 30%, passing the limit was not always enough;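 note: controls were the assay level and a saturating level of protein; the project sought stronger binding though the title names inhibitors; some compounds called inactive have numbers as strong as hits; positive values seem to mean higher polarization but the record does not say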
FGF22 binding: FGF22 (human) thermal shift binding. hit rate 1.5% among 340,000. calls only at 9.99 µM. recombinant FGF22 thermal shift, SYPRO orange fluorescence; percent of sucrose octasulfate shift, DMSO zero;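 active = melting point raised past a set limit in the mean and every replicate; inconclusive = no clear call; three in four hits are not shown here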
Target sequence (Q9HCT0 whole entry, looked up): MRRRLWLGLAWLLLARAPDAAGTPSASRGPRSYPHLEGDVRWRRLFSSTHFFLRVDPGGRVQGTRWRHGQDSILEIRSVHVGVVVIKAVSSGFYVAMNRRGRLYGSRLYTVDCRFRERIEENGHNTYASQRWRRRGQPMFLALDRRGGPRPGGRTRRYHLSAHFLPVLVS
The depositor's hits bear a star; i = inactive; ? = inconclusive; nt = no result given. This is a subset; count on the stated rates, not on these rows.

Results follow in this order: Ecoli growth	Vif A3G	RanGTP-Imp inh	AF4-AF9 inh	HNF4A DNA FP	FGF22 binding	UCH37 DUB inh
> COc1cccc(OCCSc2nc(C)c(Cc3ccccc3)c(=O)[nH]2)c1
 : 0.76	-5%	1.7	0.9	-3.9	i	5.7
> COc1ccc(-c2cnnc(N/N=C/c3c(C)nn(-c4ccccc4)c3Cl)n2)cc1
 : nt	-4%	-12	nt	-4.5	nt	nt
> CCc1c(C(=O)N2CCOCC2)csc1C
 : 0.68	2%	1.5	nt	2.5	nt	6.1
> COc1ccc(OCc2cc(C(=O)N3CCN(CC4CC4)CC3)no2)c(Cl)c1
 : 0.63	nt	9.6	2.8	0.2	i	1.7
> COc1cc2nc(N(CCCN(C)C)C(=O)c3ccc(S(=O)(=O)N(C)C4CCCCC4)cc3)sc2cc1OC
 : 0.7	-4%	0.6	9.8	0.9	i	5.6
> CC1(Cc2ccccc2C#N)C(=O)Nc2cc(-c3ccccc3Cl)ccc21 (stereo unspecified)
 : nt	nt	nt	0.3	-3.9	i	nt
> Cc1cc(NC(=O)CSc2nnc(-c3ccccc3F)n2C)no1
 : 0.68	16%	nt	1.3	-6.0	i	0.3
> Cc1ccc(S(=O)(=O)NC(=O)C2(C)CCN2C(=O)c2ccccc2)nc1 (stereo unspecified)
 : nt	nt	nt	-1.3	0.2	i	nt
> CCN1CCCC1CNC(=O)Cn1cnc2ccc(S(=O)(=O)N3CCC(C)CC3)cc2c1=O (stereo unspecified)
 : 0.77	-3%	-1.4	nt	2.0	nt	-0.1
> O=C(NNS(=O)(=O)c1ccccc1)c1cccc([N+](=O)[O-])c1
 : 0.63	nt	-4.5	-3.7	-1.5	i	-0.2
> COc1ccc(C2CC(c3ccccc3)=NN2C(=O)COC(=O)/C=C/c2ccc(O)c(OC)c2)cc1 (stereo unspecified)
 : 0.69	-5%	0.9	-5.6	-0.6	i	-15
> O=C(Nc1cc(Cl)ccc1Cl)c1cc(-c2ccco2)on1
 : 0.7	nt	3.7	-0.5	11	i	2.9
> COc1ccc(OC)c(NC(=O)CCNS(=O)(=O)c2cccs2)c1
 : 0.7	-8%	0.7	nt	3.1	nt	5.2
> O=C(NC(=S)Nc1ccc(N2CCOCC2)cc1)c1ccco1
 : 0.66	27%	-2.2	nt	1.5	nt	2.9
> S=C(NCc1ccccn1)Nc1cccc(Cl)c1
 : 0.69	16%	3.7	nt	-1.3	nt	3.4
> CC(=O)Nc1ccc(-n2c(C)nc(=O)c(-c3ccccc3)c2C)cc1
 : 0.68	-9%	-2.8	nt	1.5	nt	0.7
> Cc1nn(-c2ccc(F)cc2)c(C)c1/C=C/C(=O)N1CCNC(=O)C1
 : 0.68	-1%	2.0	-4.5	0.6	i	3.5
> Cc1ccn2c(C(=O)CSc3ccccc3Cl)c(C)nc2c1
 : 0.75	-3%	0.0	nt	-0.1	nt	4.5
> CC1(C)CCC[C@]2(C)[C@H]3Cc4cc(O)ccc4O[C@]3(C)CC[C@@H]12
 : nt	nt	nt	nt	-0.8	i	4.7
> C=CCSc1nnc2c(n1)OC=Nc1ccccc1-2
 : 0.64	4%	-0.1	nt	3.3	nt	1.4
> CN(C)c1cc(N/N=C/c2ccc(Cl)cc2)nc(N(C)C)n1
 : nt	13%	6.5	15	0.4	i	nt
> CCCS(=O)(=O)NC(=O)C1(C)CCN(C(=O)c2ccc(C(F)(F)F)cc2)C1 (stereo unspecified)
 : nt	nt	nt	-1.5	-0.9	i	nt
> O=S1(=O)c2ccc(Br)cc2N2CCC[C@H]2CN1Cc1ccccc1
 : 0.74	-4%	nt	8.7	-2.5	i	4.8
> COc1cc(NS(=O)(=O)c2c(C)oc3c(F)c(F)c(F)c(F)c23)cc(OC)c1OC
 : 0.74	nt	5.3	-1.0	-4.6	i	4.3
> CCOC(=O)C(C)Sc1nc(N2CCOCC2)c2c(c1C#N)CC(C)(C)OC2 (stereo unspecified)
 : 0.68	nt	-0.8	-1.2	2.8	i	2.7
> O=C(/C=C/c1ccc(O)cc1)c1c(O)cc(O)cc1O
 : 0.76	nt	-1.0	0.4	3.1	i	1.5
> Cc1ccc(C)c(S(=O)(=O)N2CCCOC2CNC(=O)C(=O)NCc2ccccc2)c1 (stereo unspecified)
 : 0.7	7%	-1.4	-0.1	-1.1	i	3.9
> COc1ccc(/C=C(/NC(=O)c2ccco2)C(=O)N2CCc3ccccc32)cc1OC
 : 0.61	-5%	-1.1	0.4	0.5	i	8.8
> O=[n+]1c2c(n([O-])c3cc(F)c(N4CCCC4)cc31)CCC2
 : nt	26%	-45	nt	-14	nt	nt
> N#C/C(=C\c1ccc(F)c(Br)c1)C(=O)NC1CC1
 : 0.71	-2%	0.3	1.6	2.2	i	7.3
> CCOC(=O)C(CC)(CC)/C(C)=N/NC(=O)CC#N
 : nt	3%	-0.8	nt	-1.4	nt	nt
> CC(C)OC(=O)C[N+](C)(C)CCN1C(=O)C2C(c3ccccc3)C=CC(c3ccccc3)C2C1=O (stereo unspecified)
 : 0.66	nt	4.5	2.1	-1.6	i	2.9
> COc1ccc(NC(=O)C(CC(C)C)NC(=O)C2CCCCC2)c(OC)c1 (stereo unspecified)
 : 0.7	0%	-6.3	11	-0.8	i	3.6
> COc1ccc(-c2nc3ccc(C)cn3c2CC2CCCCC2)cc1OC
 : nt	nt	nt	8.9	3.1	i	nt
> O=C(N/N=C/c1cc([N+](=O)[O-])ccc1O)c1ccncc1
 : nt	6%	-0.3	?	1.4	i	nt
> O=C(c1ccccc1)C1CCN(c2ncccc2[N+](=O)[O-])CC1
 : 0.67	nt	1.6	8.9	-1.7	i	0.5
> C/C(=N\Nc1nncc2ccccc12)c1ccc(C(C)(C)C)cc1
 : nt	0%	-0.8	nt	3.6	nt	nt
> CCN1C[C@@H]2[C@@H]3C(=O)N(C)C(=O)[C@@H]3[C@](Cc3ccccc3)(C1=O)N2C(=O)c1ccc(Cl)cc1
 : nt	nt	nt	1.6	-2.3	i	7.3
> CCCCn1nc(NC(=O)CC(C)C)c2cc3cc(OC)ccc3nc21
 : 0.71	nt	84*	-5.7	-3.1	i	-112
> Cc1ccc(O)c(CNc2nc3ccccc3n2C(C)C)c1
 : 0.65	nt	3.4	1.2	2.0	i	0.4
> COc1ccc(/C(C)=N/NC(=O)c2ccc(CSc3nncn3C)cc2)cc1
 : nt	nt	0.3	-0.4	-1.4	i	nt
> O=C(CCCNS(=O)(=O)c1cccc2nsnc12)N1CCCCC1
 : 0.72	-7%	-3.5	nt	-4.1	nt	4.8
> Cc1ccc(OC(C)C(=O)Nc2cc(C)on2)cc1 (stereo unspecified)
 : 0.7	-4%	3.2	-4.9	-4.3	i	-0.9
> Cc1c(C(=O)NCc2ccc([N+](=O)[O-])cc2)sc(=O)n1Cc1ccc(-c2ccccc2)cc1
 : nt	nt	nt	0.1	2.5	i	nt
> Nc1nonc1NN=C1CCCCC1
 : 0.66	-4%	7.2	-0.1	-1.0	i	2.3
> CCN1C(=O)/C(=C2\SC(=S)N(CCCOC)C2=O)c2ccccc21
 : 0.77	2%	3.7	nt	-3.0	nt	5.9
> O=C(CSc1nnc(-c2ccccn2)n1Cc1ccco1)c1ccc(Cl)cc1
 : 0.72	5%	1.9	nt	2.2	nt	2.8
> Cc1ccccc1-c1nc(Cc2ccccc2)no1
 : 0.78	-1%	-1.8	nt	-0.7	nt	4.6
> Cc1ccc2nc(SCC(=O)Nc3ccc4[nH]c(=O)[nH]c4c3)[nH]c2c1
 : 0.6	0%	nt	-8.7	1.2	i	1.8
> COc1ccc(C(=O)c2ccccc2CN2C(=O)c3ccccc3C2=O)cc1
 : nt	-4%	nt	-3.4	-1.1	i	nt
> COc1ccc(OC)c(NC(=O)COC(=O)CC2CCCCC2)c1
 : 0.72	2%	nt	1.4	3.1	i	4.0
> Cc1ccc(Nc2nc(N)c3ccccc3n2)cc1C
 : 0.52	-7%	-1.2	9.0	-2.9	nt	-5.3
> O=C1CCCN1CCCN1C(=O)N[C@@H](Cc2ccccc2)C1=O
 : 0.73	9%	3.0	nt	2.7	nt	2.9
> CCOC(=O)C(=O)Nc1ccccc1C(=O)Nc1ccc(OC)cc1
 : 0.65	5%	1.5	-21	-1.0	i	-29
> CCN(C(=O)COC(=O)Cn1cnc2c1c(=O)n(C)c(=O)n2C)C1CCS(=O)(=O)C1 (stereo unspecified)
 : 0.69	nt	2.3	-0.7	1.9	i	3.0
> CON/C=C(\C=Nc1ccccc1)c1ncc(C(F)(F)F)cc1Cl
 : 0.66	1%	9.0	nt	2.3	nt	3.7
> CC1=CC(C)(C)N(C)C(=O)N1c1ccc(Cl)cc1
 : 0.7	-4%	2.5	nt	-0.5	nt	-0.1
> Nc1[nH]n(-c2ccccc2)c(=O)c1N=Nc1ccc2c(c1)OCCO2
 : 0.73	11%	-0.3	39*	1.5	i	6.0
> O=C(O)CSC(C(=O)Nc1ccc(C(F)(F)F)cc1)c1ccccc1 (stereo unspecified)
 : 0.67	-5%	-0.9	nt	0.4	nt	2.0
> O=C1CCc2cc(S(=O)(=O)N3CCCC3C(=O)NC3CCCCCCC3)ccc2N1 (stereo unspecified)
 : 0.73	12%	-4.3	-11	-0.5	i	3.2

Additional results follow.
Results follow in this order: Ecoli growth	Vif A3G	RanGTP-Imp inh	AF4-AF9 inh	HNF4A DNA FP	FGF22 binding	UCH37 DUB inh
> CC1CCCCN1C(=O)c1ccc(COc2ccc([N+](=O)[O-])cc2)o1 (stereo unspecified)
 : 0.72	-5%	4.2	-3.4	0.9	i	1.5
> O=C(Cn1nc(-c2ccccc2)ccc1=O)NCCN1CCN(Cc2ccccc2)CC1
 : 0.71	29%	-0.5	-3.7	1.1	i	3.2
> CC(CC(F)(F)F)N1CCC(n2nccc2NC(=O)CCOc2ccccc2)CC1 (stereo unspecified)
 : nt	nt	27*	-25	-3.4	i	nt
> COc1ccc(CCN2CC(C(=O)N3CCSCC3)CCC2=O)cc1 (stereo unspecified)
 : 0.69	nt	4.2	0.0	-3.4	i	6.2
> COc1cccc(OC)c1NC(=O)Cc1nn(C)c(=O)c2ccccc12
 : 0.68	-2%	0.1	nt	2.6	nt	2.0
> CCCCNC(=O)C(C)N(CCN(C)C)C(=O)CCCN1C(=O)NC(c2ccc([N+](=O)[O-])cc2)C(C(=O)OCc2ccccc2)=C1C (stereo unspecified)
 : 0.69	5%	nt	nt	5.0	nt	0.9
> COCC(=O)NCc1ccc2c(c1)OCO2
 : nt	19%	9.2	nt	2.3	nt	nt
> COC(=O)c1[nH]c2cccc(OC)c2c1NC(=O)CCN1CCSCC1
 : 0.65	nt	2.5	nt	-1.5	i	-24
> Cc1nc2nc[nH]c2cc1Br
 : 0.71	-3%	-4.5	nt	4.2	nt	-5.1
> COc1ccc(N(C(=O)c2cccnc2)S(=O)(=O)c2cccc([N+](=O)[O-])c2)cc1
 : 0.69	-3%	5.5	2.5	-0.3	i	1.7
> CCN(CC)c1ccc([N+](=O)[O-])cc1C(=O)N1CCOCC1
 : 0.69	10%	-0.3	1.0	8.7	nt	9.2
> CSc1ccccc1OCc1cc(C(=O)N2CCc3c(Cl)cccc3C2)no1
 : 0.66	nt	-3.8	-1.4	3.1	i	5.3
> O=C(c1cc(S(=O)(=O)Nc2ccccc2F)c(Cl)cc1Cl)N1CCN(CCO)CC1
 : 0.71	22%	1.0	-23	-5.1	i	-1.5
> COc1ccc(C(=O)C2CCCN(S(=O)(=O)N(C)C)C2)c(C)c1 (stereo unspecified)
 : 0.69	nt	-0.6	1.1	5.6	i	6.6
> O=C1CCCC/C1=C/Nc1ccc(S(=O)(=O)Nc2ncccn2)cc1
 : nt	16%	2.0	nt	1.9	nt	3.8
> COc1cccc(-n2nnnc2SCC(=O)NCCc2ccccc2)c1
 : 0.79	-4%	0.9	nt	0.5	nt	-1.1
> CNc1c([N+](=O)[O-])cnn1-c1ccc(Cl)cc1
 : 0.73	1%	4.1	nt	0.8	nt	4.4

High-throughput results deposited in PubChem BioAssay by several laboratories.
